High-throughput results: PubChem, The Scripps Research Institute Molecular Screening Center
OX1R antag: OX1R (human) antagonism; OX1R-expressing cells, FRET antagonist read-out; inhibition, % at 6.6 µM; actives 1.8% (n = 330,000); AID 485270; in the data active = inhibition mostly above about 38%, no sharp cut-off; inactive = mostly below about 40%;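 also: 0% = agonist challenge alone and 100% = reference antagonist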
Target sequence (O43613 whole entry, looked up): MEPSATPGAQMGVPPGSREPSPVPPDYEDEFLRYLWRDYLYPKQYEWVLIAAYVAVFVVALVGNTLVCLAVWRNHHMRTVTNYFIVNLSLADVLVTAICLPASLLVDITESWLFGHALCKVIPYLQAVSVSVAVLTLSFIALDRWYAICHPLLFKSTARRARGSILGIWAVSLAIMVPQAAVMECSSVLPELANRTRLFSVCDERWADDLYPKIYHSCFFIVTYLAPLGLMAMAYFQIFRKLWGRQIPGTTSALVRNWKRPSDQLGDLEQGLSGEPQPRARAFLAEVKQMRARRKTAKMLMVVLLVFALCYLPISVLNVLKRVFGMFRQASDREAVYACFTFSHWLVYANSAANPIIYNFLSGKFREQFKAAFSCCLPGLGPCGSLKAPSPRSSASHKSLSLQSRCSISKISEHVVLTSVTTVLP
* hit, by the source's call. Not all compounds are listed, and most or all hits are left out here.

SMILES	OX1R antag
COC(=O)C1=C(N)Oc2cc(C)n(Cc3ccco3)c(=O)c2C1c1cccc(Cl)c1 (configuration not stated)	55
CCNS(=O)(=O)c1ccc(OC)c(C(=O)NC2CCCCC2)c1	5
CC(=O)Nc1cccc(C2=CC(c3ccco3)n3ncnc3N2)c1 (configuration not stated)	18
O=C(Nc1ccccc1N1CCCCC1)c1cc(S(=O)(=O)N2CCOCC2)ccc1Cl	17
COc1ccc(/C=C(\C#N)C(=O)OCC(=O)Nc2c(C)cccc2C)cc1	23
Cc1ccc(C(C)NC(=O)c2cccnc2)cc1 (configuration not stated)	2
CC(C)[C@H]1CN=C2N(C[C@H](C)NC(=O)CCC3CCCCC3)[C@H](Cc3ccc(O)cc3)CN21	13
COc1cc(/C=C2\SC(N3CCc4ccccc4C3)=NC2=O)cc(OC)c1OC	25
COc1ccc(N(CC(=O)NCc2ccccc2OC)S(=O)(=O)c2ccccc2[N+](=O)[O-])c(OC)c1	73
O=C(O)c1cccnc1SC1CC(=O)N(CCc2ccccc2)C1=O (configuration not stated)	12
Cc1cc(C)n2nc(C(=O)N/N=C/c3ccccc3Cl)nc2n1	26
COc1ccc(NC2=NC(C)(CO)CS2)cc1 (configuration not stated)	8
CCOC(=O)c1ccc2nc(Nc3nc4ccc(F)cc4s3)sc2c1	0
CC(C)(C#N)Nc1ccccc1	10
Cc1ccc(S(=O)(=O)N2CCCCC2c2cccnc2)c(C)c1C (configuration not stated)	30
COc1ccc(Cc2nnc(NS(=O)(=O)Cc3ccccc3)s2)cc1	17
O=c1c(-c2ccc(Cl)cc2)[n+]([O-])c2ccccc2n1OCc1nc2ccccc2[nH]1	29
CC1CCCCC1NC(=S)Nc1cccc(S(=O)(=O)N(C)C)c1 (configuration not stated)	32
COc1ccc(NC(=O)C(Cc2ccccc2)n2cccc2)c(OC)c1 (configuration not stated)	17
CCOC(=O)c1cc(NC(=O)c2ccc(OC)cc2)c(=O)oc1-c1ccccc1	6

Sorted by value in OX1R antag (rising): some entries from above.
| compound | OX1R antag |
| --- | --- |
| CCOC(=O)c1ccc2nc(Nc3nc4ccc(F)cc4s3)sc2c1 | 0 |
| CCOC(=O)c1cc(NC(=O)c2ccc(OC)cc2)c(=O)oc1-c1ccccc1 | 6 |
| COc1ccc(NC2=NC(C)(CO)CS2)cc1 (configuration not stated) | 8 |
| CC(C)(C#N)Nc1ccccc1 | 10 |

More structures
SMILES	OX1R antag
O=S1(=O)OCCC(c2ccccc2)N1Cc1ccccc1 (configuration not stated)	23
COc1cccc(NC(=O)CN(C)S(=O)(=O)c2ccc3[nH]c(=O)oc3c2)c1	26
CCOc1ccc(/C=N/NC(=O)C2CC2)cc1OC	16
CCN(C(=O)CCN1C(=O)/C(=C/c2ccccc2)SC1=S)C1CCS(=O)(=O)C1 (configuration not stated)	26
FC(F)(F)c1nc2ccccc2n2c(-c3c(Cl)cccc3Cl)nnc12	25
Cc1onc(-c2ccccc2Cl)c1C(=O)Nc1nnc(-c2ccc(F)cc2)s1	26
O=C(c1cc(F)c(F)cc1Cl)N1CCN(c2ncccn2)CC1	3
COc1ccc(C(NC(=O)/C=C/c2ccco2)c2ccc(OC)c(OC)c2)cc1OC	22
COc1ccc(-n2c(=S)[nH]c3cc(C(=O)Nc4cc(OC)c(OC)c(OC)c4)ccc3c2=O)c(OC)c1	25
CC(=O)c1c(-c2ccccc2)[nH]c2ccccc12	5
CC(C)NS(=O)(=O)c1ccc(OCC(=O)NCCC2=CCCCC2)cc1	23
CCC(C(=O)Nc1ccccc1OC)n1c(C(=O)OC)cc2ccsc21 (configuration not stated)	21
CCOc1ccc(C2=[N+]([O-])C(C)(C)N(O)C2(C)C)cc1	5
O=C(Nc1ccc(N2CCOCC2)cc1)c1ccccc1SCC(=O)N1CCCC1	31
O=C(O)c1ccc2c(c1)c1c3n2CCNC3CCC1 (configuration not stated)	9
COc1ccc(S(=O)(=O)Nc2ccc3oc(C)c(C(=O)O)c3c2)cc1	11
O=C(Nc1cccc(F)c1)Nc1ccc2c(c1)C(=O)OC2	21
Cc1ccc(S(=O)(=O)NCC(=O)N2CCCC2C(=O)O)cc1 (configuration not stated)	2
CCc1noc(C)c1C(=O)OC(C)C(=O)Nc1cc([N+](=O)[O-])ccc1OC (configuration not stated)	20
CC(=O)c1ccc(OCC(=O)c2ccc(-c3ccccc3)cc2)cc1	10
CCNc1nc(Oc2ccc(F)cc2)cc(C(F)(F)F)n1	15
CCOCCCNC(=O)Cn1nc(Cc2ccncc2)c2ccccc2c1=O	-1
CCNC(=O)N1c2ccccc2Sc2ccccc21	16
COc1cccc(N/C(C)=C/C(=O)c2ccc(Br)cc2)c1	3
Nc1c2c(nc3ccccc13)CCC2	25
CCOC(=O)c1nnsc1NC(C)=O	8
O=C1CC(Nc2ccc(N3CCOCC3)cc2)C(=O)N1Cc1ccccc1 (configuration not stated)	15
Cc1c(C(=O)N2CCCC2)c(S(=O)(=O)Nc2ccccc2Cl)c(C)n1C	-4
Cc1ccc(NC(=Nc2ccc(Br)cc2)N2CCOCC2)cc1C	10
Cc1ccc(N(C(=O)c2cccs2)C2C=CS(=O)(=O)C2)cc1 (configuration not stated)	0
COc1cc(Br)c(C2C(C#N)=C(N)Oc3n[nH]c(-c4cccnc4)c32)cc1OC (configuration not stated)	12
S=c1[nH]nc(C2CC2)n1Cc1ccccc1	9
CCSc1nnc(NC(=O)CN2C(=O)C3CC=CCC3C2=O)s1 (configuration not stated)	9
CCOC(=O)N1CCN(C(=O)CN(C2CCCCC2)S(=O)(=O)c2ccc(F)cc2)CC1	26
Cc1nc(-c2ccccn2)sc1C(=O)O	16
CC(C)(C)NCc1cc(Br)ccc1OC1CCCC1	11
CC(C)N(Cc1cn(C)nc1-c1cccc(Cl)c1)Cc1nccn1C	13
CC(=O)Cc1nsc(NC(=O)c2ccc(-c3cccc(Cl)c3)o2)n1	43
CCc1ccc(N2CCN(C(=O)c3ccc4c(c3)OCO4)CC2)cc1	11
O=C(N/N=C/c1ccc2c(c1)OCO2)c1ccccn1	12
S=c1[nH]nc(Cn2c(-c3ccccn3)nc3ccccc32)n1-c1ccc2c(c1)OCCO2	42
CC(C)C1CC(c2ccccc2)(C(CN)CO)CCO1 (configuration not stated)	16
O=C1CCCN2N=C(SCC(=O)Nc3ccc(Br)cc3)SC2=N1	22
COc1cc2c(cc1OC)CN(C(=O)c1ccco1)CC2	23
Cc1ccc2nc(N/C(=N/S(=O)(=O)c3ccc(F)cc3)c3ccccc3)sc2c1	8
Cc1ccc(NC(=O)c2ccc3[nH]c(=O)c(=O)[nH]c3c2)nc1	8
CCOc1cccc(=O)c2c(C)oc(C)c12	5
Cc1nc(N)[nH]c(=O)c1CC(=O)OCCCl	17
O=C(CN1C(=O)C2C3C=CC(C4CC34)C2C1=O)OCC(=O)c1ccccc1 (configuration not stated)	-1
CCN(CC)C(=O)c1sc(NC(=O)Cc2ccc(OC)cc2)c(C#N)c1C	21

Arranged by heavy-atom count (ascending): part of the list above.
SMILES	OX1R antag
CCOc1cccc(=O)c2c(C)oc(C)c12	5
O=C(CN1C(=O)C2C3C=CC(C4CC34)C2C1=O)OCC(=O)c1ccccc1 (configuration not stated)	-1
S=c1[nH]nc(Cn2c(-c3ccccn3)nc3ccccc32)n1-c1ccc2c(c1)OCCO2	42

Next records:
SMILES	OX1R antag
CC(C)c1ccc(NC(=O)CNS(=O)(=O)c2ccc(F)cc2)cc1	11
O=C(Nn1cnnc1)c1ccc(Cl)cc1	10
CCCC(C)C(=O)Nc1nc(C)c(-c2csc(Nc3ccc(Cl)cc3)n2)s1 (configuration not stated)	15
CCOC(=O)c1c(N)c2cc([N+](=O)[O-])cnc2n1C	16
Cc1cccc(S(=O)(=O)N2CN(Cc3ccco3)c3nc4ccccc4nc32)c1	13
COc1ccccc1/C=C(\C#N)C(=O)Nc1ccc(S(N)(=O)=O)cc1	12
CCn1cc(CN2CCC(C(=O)Nc3ccc(Oc4cccnc4)cc3)CC2)c(C)n1	48
COCCN(C(=O)CCC(=O)Nc1cc(C)on1)C(C(=O)NC1CCCC1)c1ccccc1F (configuration not stated)	5
Cc1cc(OCc2cc(C(=O)N(C)Cc3ccccn3)no2)cc(C)c1Cl	1
CCOc1cccc(CN2CCN(c3cccc(C(F)(F)F)c3)CC2)c1O	10
COc1ccc(NC(=S)NNC(=O)c2cccs2)cc1	12
Cc1ccc(-n2nnnc2/C=C\Nc2cc(C)on2)cc1	17
C/C=C/c1ccc(Oc2nnnn2-c2ccc(C(=O)O)cc2)c(OC)c1	24
Cc1c(C(=O)NCc2ccccn2)oc2ccc(Br)cc12	17
CCc1ccc(/C=N\n2cnnc2)cc1	2
C/C(CC1CC(C)(C)OC1=O)=N\NC(N)=S (configuration not stated)	0
CCOC(=O)/C(C)=N/NC(=O)c1cccc([N+](=O)[O-])c1	32
Cc1cc(NC(=O)CSc2nnc(Nc3ccccc3F)s2)no1	29
O=C(NC1CCCCC1)C1CC(=O)N(CCc2ccccc2)C1 (configuration not stated)	-2
Cc1ccc(C(=O)NCCOc2cccc(C)c2)cc1	11
COc1cc(C2C(C(C)=O)=C(O)C(=O)N2CCN2CCOCC2)ccc1O (configuration not stated)	5
COc1ccc(N2CCN(C(CNC(=O)c3ccco3)c3ccco3)CC2)cc1 (configuration not stated)	19
O=C(c1cccc(Cl)c1)N1CCN(Cc2c[nH]c3ccccc23)CC1	14
COCCn1nnnc1CN1CCSCC1	10
CN1CCN(C(=O)c2ccccc2Nc2ccc(SC(F)F)cc2)CC1	13
COc1ccccc1NC(=S)NC1CCCC1	6
CN(C)C(CNC(=O)c1ccc2nc[nH]c2c1)c1ccccc1 (configuration not stated)	15
CC1CCCCN1C(=O)CSCC(=O)Nc1nc(-c2cccs2)cs1 (configuration not stated)	14
COc1c2c(nc3occc13)C(CC=C(C)C)(OC)C(=O)C=C2 (configuration not stated)	26
Cn1c(=O)c2c(nc(N3CCOCC3)n2C/C=C/c2ccccc2)n(C)c1=O	9

A few values from the list:
Value for COc1ccccc1NC(=S)NC1CCCC1 under OX1R antag: 6
Value for CN(C)C(CNC(=O)c1ccc2nc[nH]c2c1)c1ccccc1 (configuration not stated) under OX1R antag: 15
Value for COc1ccc(N2CCN(C(CNC(=O)c3ccco3)c3ccco3)CC2)cc1 (configuration not stated) under OX1R antag: 19
Value for CN1CCN(C(=O)c2ccccc2Nc2ccc(SC(F)F)cc2)CC1 under OX1R antag: 13
Value for Cn1c(=O)c2c(nc(N3CCOCC3)n2C/C=C/c2ccccc2)n(C)c1=O under OX1R antag: 9
Value for COCCn1nnnc1CN1CCSCC1 under OX1R antag: 10
Value for COc1cc(C2C(C(C)=O)=C(O)C(=O)N2CCN2CCOCC2)ccc1O (configuration not stated) under OX1R antag: 5

The listing continues.
SMILES	OX1R antag
O=C(CN(CC1CCCO1)C(=O)CNS(=O)(=O)c1ccc(F)cc1)NC1CCCC1 (configuration not stated)	9
O=C(c1cccc(N2CCCC2=O)c1)N1CCOCC1	10
CN(CC(=O)Nc1cccc(F)c1)C(=O)c1cc([N+](=O)[O-])ccc1N1CCOCC1	26
O=C(O)CCCC(=O)N(Cc1ccccc1)Cc1ccccc1	14
Cc1c(NC(=O)C2CCCN2S(=O)(=O)c2ccc(Cl)cc2)c(=O)n(-c2ccccc2)n1C (configuration not stated)	14
O=C(NOC(=O)c1ccccc1)c1ccccc1	7
CC(NS(=O)(=O)c1ccccc1)C1COc2ccccc2O1 (configuration not stated)	21
Cn1cc(/C=C(\C#N)C(=O)Nc2ncc(Cc3ccc(Cl)cc3)s2)c2ccccc21	6
CCN(CC)S(=O)(=O)c1ccc(C(=O)N(c2ccccc2)C2C=CS(=O)(=O)C2)cc1 (configuration not stated)	20
O=C(CCOc1ccccc1)OCC(=O)c1cc2ccccc2o1	20
Cn1cnnc1SC(C(=O)Nc1ccc(F)cc1)c1ccccc1 (configuration not stated)	6
CC1(C)OC(C)(C)/C(=C/Nc2ccc(O)cc2)C1=O	21
O=C(Nc1ccncc1)C1CC(=O)N(c2ccc(F)cc2)C1 (configuration not stated)	11
Cc1cc(C(=O)OCC(=O)Nc2ccccc2F)c(C)o1	23
O=C(NCCc1ccccc1)C1COc2ccccc2O1 (configuration not stated)	-2
O=C(NCC1CCCO1)C1CCN(S(=O)(=O)c2cccnc2)CC1 (configuration not stated)	12
OCCC1CN(Cc2cc(F)ccc2-n2cccn2)CCN1Cc1ccc(F)cc1 (configuration not stated)	12
CCOC(=O)c1cnc(SCc2cccc(C)c2)nc1N	40
O=C(NCc1ccco1)C1CC(c2ccc(C(F)(F)F)cc2)=NO1 (configuration not stated)	12
Cc1cc(NC(=O)C(=O)NCc2cccc(Cl)c2)no1	12
COc1nc(NCCO)nc(Nc2ccccc2F)n1	14
COc1ccc(OC)c(C(=O)CCCC(=O)c2cc(OC)ccc2OC)c1	13
Cn1c(=O)cc(N2CCN(C(=O)c3ccco3)CC2)[nH]c1=O	18
N#Cc1cc(-c2ccccc2)nn1-c1ccccc1	29
COc1ccc(F)cc1S(=O)(=O)N1CCN(c2ccccn2)CC1	12
COC(=O)CNC(=O)c1ccc(=O)oc1	21
COc1ccc(NC(=O)CC2C(=O)N(c3cccc(OC)c3)C(=O)N2CCC(C)C)cc1 (configuration not stated)	6
COc1cccc(CC(=O)Nc2ccc3c(c2)CCC3)c1	9
